# Bioassay records from PubChem.
# PrP UTR inh = inhibition of PrP 5' UTR reporter expression | cell-based PrP 5' UTR mRNA reporter, plate reader | AID 488862 | inhibition, % (concentration not given with the values) | 0.35% of 340,000 active;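 active means every replicate at 50% or more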;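 further: 0 = median of the neutral control wells; tested in H4 reporter cells; numbers are from one replicate; inactives centre near -14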
# Sa RN4220 lethal = kills Staphylococcus aureus RN4220; AID 1259311; 0.33% of 330,000 active; S. aureus RN4220 growth, OD600, 16 h; inhibition, % (test concentration not listed);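 active means z-score of -3 or lower and OD600 up to 0.18 on both plates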;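 further: plate controls were untreated cells for no effect and reference antibiotic for full effect; stock transfer was 100 nL into about 80 µL; one replicate is shown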
# Mtb hypoxia rep = inhibitors of hypoxia-regulated fluorescent reporter in Mycobacterium tuberculosis; fluorescence inhibition, % (concentration not given with the values); M. tuberculosis hypoxia-regulated fluorescent reporter, fluorescence; 0.1% of 300,000 active; AID 1159583;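 active means 35 to 45% if threefold the growth effect, above 45% if 1.5-fold the growth effect; inactive means the rest, general growth blockers included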;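 further: wells of about 50 µL received 100 nL stock; 0% = vehicle wells and 100% = reference inhibitor wells; whole bacteria with a GFP reporter of the hypoxia response; strong numbers were not always called active; many hits fall short of the cut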
# BJeLR lethal = BJeLR cell viability loss. BJeLR (HRASV12) viability, CellTiter-Glo ATP luminescence, 48 h; reference of the scale not given here. inhibition, % (concentration not given with the values). 0.17% of 300,000 active;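 active means replicate mean above 50%; inconclusive means above 50% but judged a plate artefact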;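 further: 50 nL library stock added to about 25 µL; numbers are from one replicate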
# ugtP null kill = growth inhibition of S. aureus ugtP deletion strain; S. aureus RN4220 ugtP deletion, OD600 growth, 16 h; some inactives read as strong as hits; growth inhibition, % (concentration not given with the values); 0.54% of 330,000 active; AID 1259309;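 active means z-score under -3 and OD600 up to 0.15 on both plates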;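 further: plate controls were untreated wells for no effect and antibiotic for full effect; wells of about 80 µL received 100 nL stock; the first replicate is given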
# Autofluor counter = counter-screen for toxin protease inhibitors: compound fluorescence. fluorescence intensity (test concentration not listed). AID 624483. compound autofluorescence counterscreen, microsphere flow cytometry; hits give high values. 3.1% of 360,000 active;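 active means at least 3 SD above the mean of all compounds, about 16000 in these data; inconclusive means too few beads counted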;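 further: 100 nL of 1 mM stock went into each well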
# Mtb hypoxia rep growth = recorded beside Mtb hypoxia rep, whose call it bears; growth inhibition, %; measured here: M. tuberculosis growth (absorbance);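 0% = vehicle and 100% = reference antibiotic; read after six days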
# * marks the source's active call; other numbers are inactive results; ? = inconclusive; · = no result given. Hits appear at their usual frequency; 4% or so of the library scored in one or more.
Compound	PrP UTR inh	Sa RN4220 lethal	Mtb hypoxia rep	Mtb hypoxia rep growth	BJeLR lethal	ugtP null kill	Autofluor counter
CCOC(=O)c1cc(C#N)c(N2CCN(C(=O)c3ccccc3)CC2)nc1C(F)(F)F	-14	-3.4	-1	9	-7	-4	5016
Cn1nc(C(F)(F)F)c2cc(C(=O)Nc3ccc(C(F)(F)F)cc3)sc21	-14	-0.6	20	9	2	-36	4607
COc1cccc(OC)c1C(=O)NC(=S)N1CCN(c2ccc(C(F)(F)F)cc2[N+](=O)[O-])CC1	-5	5.5	5	9	-2	7	3082
Cc1cccc(-n2c(CNC(=O)Cc3ccccc3)n[nH]c2=S)c1	-3	5.6	5	13	5	6	4369
CCOc1ccc(-c2[nH]ncc2Oc2ccccc2OCC)c(O)c1	-6	-25	18	8	5	-20	3317
O=C(Nc1cccnc1N1CCOCC1)c1cccs1	-7	3.8	-6	3	-2	6	4003
CC(=O)c1ccc(NCC2COc3ccccc3O2)c([N+](=O)[O-])c1 (stereo unspecified)	-62	7.8	8	4	-4	4	3693
CCOC(=O)C1(CC2CC2)CCN(Cc2cnc(N(C)C)s2)CC1	-5	4.1	10	-1	5	15	4912
S=C(NCCc1ccccc1)NN=Cc1cccs1	·	-1.9	14	15	·	1	·
COc1ccc(NC(=O)CCNC(=O)Cn2cnc3ccccc3c2=O)c(OC)c1	-12	1.0	·	·	4	0	2457
O=C(NCCNC(=O)c1ccccc1Cl)c1ccco1	-24	3.8	8	6	1	7	5267
Oc1ccc(C(=S)N2CCCCC2)cc1	3	-10.0	4	6	-2	-10	3097

# 7 compounds drawn at random from those above, as already listed:
Compound	PrP UTR inh	Sa RN4220 lethal	Mtb hypoxia rep	Mtb hypoxia rep growth	BJeLR lethal	ugtP null kill	Autofluor counter
S=C(NCCc1ccccc1)NN=Cc1cccs1	·	-1.9	14	15	·	1	·
O=C(NCCNC(=O)c1ccccc1Cl)c1ccco1	-24	3.8	8	6	1	7	5267
CCOC(=O)C1(CC2CC2)CCN(Cc2cnc(N(C)C)s2)CC1	-5	4.1	10	-1	5	15	4912
CCOC(=O)c1cc(C#N)c(N2CCN(C(=O)c3ccccc3)CC2)nc1C(F)(F)F	-14	-3.4	-1	9	-7	-4	5016
O=C(Nc1cccnc1N1CCOCC1)c1cccs1	-7	3.8	-6	3	-2	6	4003
CCOc1ccc(-c2[nH]ncc2Oc2ccccc2OCC)c(O)c1	-6	-25	18	8	5	-20	3317
Cn1nc(C(F)(F)F)c2cc(C(=O)Nc3ccc(C(F)(F)F)cc3)sc21	-14	-0.6	20	9	2	-36	4607

# Other results
Compound	PrP UTR inh	Sa RN4220 lethal	Mtb hypoxia rep	Mtb hypoxia rep growth	BJeLR lethal	ugtP null kill	Autofluor counter
O=C1CC[C@@H](O)CCN1CC[C@H](Sc1ccccc1)c1ccccc1	-18	·	·	·	4	·	2776
Cc1ccc(OCc2nnc(NC(=O)c3ccco3)s2)c(C)c1	-30	5.3	5	11	5	-9	7311
Cn1ncc2c(=O)n(CC(=O)NC34CC5CC(CC(C5)C3)C4)cnc21	-20	0.1	-8	1	·	-4	2814
Cc1cccc(NCC(=O)N/N=C\c2cccn2C)c1	-20	·	·	·	3	·	3704
CCOC(=O)C(C)Sc1nnc(Cc2cc(=O)[nH]c(=O)[nH]2)n1-c1cccc(OC)c1 (stereo unspecified)	-27	-2.7	·	·	-6	2	3963
Cc1ccc2c(C)c(C(=O)NCc3ccc(S(N)(=O)=O)cc3)oc2c1	-25	0.4	-1	8	2	-2	4643
Cc1cc(C)nc(N2CCCC(C(=O)NCCc3ccc(F)cc3)C2)n1 (stereo unspecified)	-14	6.7	6	-3	0	7	15694
NC(=O)CSc1nnc(-c2cc3ccccc3o2)n1Cc1ccccc1	-20	-2.1	·	·	-3	-2	5115
C#CCOCCOCCOCCNc1nc(N2CCN(C(=O)[C@H](CCCCN)n3cc(CCCC)nn3)CC2)nc(N2CCN(C(=O)[C@H](CCCCN)n3cc(CCCC)nn3)CC2)n1	-6	·	·	·	2	·	3484
O=C(O)CN1C(=O)C(=O)N(Cc2ccccc2F)C1=O	5	0.3	-3	-3	-1	2	3888
CN(Cc1ccc(F)cc1)S(=O)(=O)c1nnc(NC(=O)c2ccccc2Br)s1	-5	22	4	-6	-9	20	4484
CNc1ccc(C(O)(C(F)(F)F)C(F)(F)F)cc1C(O)(C(F)(F)F)C(F)(F)F	-2	9.1	7	5	10	-20	4300

# Only Autofluor counter, for some of the entries so far:
structure	Autofluor counter
O=C(O)CN1C(=O)C(=O)N(Cc2ccccc2F)C1=O	3888
CN(Cc1ccc(F)cc1)S(=O)(=O)c1nnc(NC(=O)c2ccccc2Br)s1	4484

# Next records:
Compound	PrP UTR inh	Sa RN4220 lethal	Mtb hypoxia rep	Mtb hypoxia rep growth	BJeLR lethal	ugtP null kill	Autofluor counter
CCNC(=O)N1CCN(CCCC(c2ccc(F)cc2)c2ccc(F)cc2)CC1	1	-2.7	-2	1	·	3	4406
CN1CCN(S(=O)(=O)c2ccc(Oc3ccc(Br)cc3F)nc2)CC1	-20	1.5	-6	-4	3	7	4017
CC(=O)c1ccc([C@H]2C[C@@]34CN(C(=O)OC(C)(C)C)S(=O)(=O)[C@H]3C[C@H]2O4)cc1	-4	·	·	·	-6	·	2942
CCCCn1c(=O)c2ccccc2n2c(=S)[nH]nc12	-26	7.3	12	-2	4	5	4163
COc1ccc(C(=O)N/N=C/c2ccc3cccc(OCc4ccccc4)c3n2)cc1	-35	·	·	·	3	·	4030
O=C(c1cc([N+](=O)[O-])ccc1Cl)N1CCN(c2ccc([N+](=O)[O-])cc2)CC1	-17	1.5	10	7	5	17	2603
N=c1c2c(n(Cc3ccc([N+](=O)[O-])cc3)c3c1CCC3)CCCC2	80*	0.3	11	18	-8	8	5165
O=C(COC(=O)c1ccccc1C(=O)c1ccc(Cl)cc1)NC(c1ccccc1)c1ccccc1	1	1.3	8	4	0	4	1972
CCOc1ccccc1Nc1nnc(SCC(=O)Nc2cc(C)on2)s1	-27	8.4	5	9	-5	2	10966
CCOc1ccc(S(=O)(=O)NCCCN2CCOCC2)c2ccccc12	-19	4.2	4	3	-6	9	3841
Cc1ccc(N2C(=O)NC(=O)C3(Cc4ccccc4N4CCCC43)C2=O)cc1 (stereo unspecified)	-7	5.2	5	9	-6	-1	19892*
CC(=O)c1cnc2nc(C)nn2c1C	-14	5.3	-1	4	0	0	9268

# Later entries:
Compound	PrP UTR inh	Sa RN4220 lethal	Mtb hypoxia rep	Mtb hypoxia rep growth	BJeLR lethal	ugtP null kill	Autofluor counter
CN(C)CCNC(=O)Cc1ccc([N+](=O)[O-])cc1	-16	4.8	7	4	-11	9	2411
CCc1ccccc1Nc1nn2c(=O)c3ccc(C(=O)NCc4ccccn4)cc3nc2s1	-3	3.2	9	8	-12	-10	5622
NCCCC[C@H]1CNC(=S)N1CCc1cc(C(F)(F)F)cc(C(F)(F)F)c1	-13	·	·	·	2	·	4262
O=C(O)Cc1sc(N/N=C\c2ccncc2)nc1-c1ccccc1	-4	·	·	·	3	·	4909
COc1ccc(Cl)cc1NC(=O)CSc1ncnc2c1oc1ccccc12	-9	-2.8	-10	-4	2	-9	1902
N/C(=N\OC(=O)c1ccncc1)c1cccc([N+](=O)[O-])c1	-21	·	·	·	-11	·	4029
CC(=O)c1c(C)[nH]c(C(=O)Nc2nc(C)cs2)c1C	65*	6.8	17	19	3	2	4517
COc1cc(C(=O)Nc2cc(C(F)(F)F)ccc2Cl)cc(OC)c1OC	-20	-3.8	2	12	0	-2	3015
CC(=O)Nc1ccc(S(=O)(=O)N(C)S(=O)(=O)c2ccc(F)cc2)cc1	-28	4.2	1	7	3	3	5524
CC(C)CCNC(=O)CCCn1c(=O)[nH]c2ccc(Br)cc2c1=O	-1	-0.2	-4	20	6	-1	4418
CC(C)n1c(-c2ccc(N(C)C)cc2)nc2ccccc21	-71	-0.2	·	·	·	-8	2720
Fc1ccc(-c2n[nH]c(=S)n2Cc2ccccc2)cc1	2	-0.5	17	8	-2	1	3091

# More records:
Compound	PrP UTR inh	Sa RN4220 lethal	Mtb hypoxia rep	Mtb hypoxia rep growth	BJeLR lethal	ugtP null kill	Autofluor counter
Cc1ccc(C)c(NC(=S)NC2CC3CCCC(C2)N3CC(C)C)c1 (stereo unspecified)	-15	3.4	6	13	-7	2	4563
CCS(=O)(=O)N1CCC(C(=O)NCCCN2CCC(Cc3ccccc3)CC2)CC1	-22	1.8	11	-1	-5	3	10464
CN(C)S(=O)(=O)c1cccc(C(=O)NCCOC(=O)c2cc(F)c(F)cc2Cl)c1	-29	3.0	13	7	-6	9	5871
O=C(CCC(=O)c1cccs1)NNC(=O)c1cccc(Cl)c1	-15	0.6	-3	-7	-4	3	4590
CCOc1cc2c(cc1C(C)(C)C)NC(=O)CS2	-12	11	·	·	3	4	4763
O=C(O/N=C\c1ccc(N2CCOCC2)c([N+](=O)[O-])c1)c1ccccc1Cl	-11	·	·	·	-2	·	2964
Cc1ccc(S(=O)(=O)N2CCOCC2)s1	-5	4.9	4	-3	4	5	5648
CCN1CCN(C(=O)c2ccc(Cl)c(S(=O)(=O)N(C)c3ccccc3)c2)CC1	-12	0.3	-4	-7	·	0	?
CCCC(=O)c1cc(CP(=O)(OCC)OCC)oc1C	·	3.7	-2	-5	-5	9	3390
COc1ccc(CN2C(=O)c3ccccc3C2C(=O)NCCc2ccccc2)c(OC)c1 (stereo unspecified)	-15	0.4	-9	-11	-6	2	3804
Cc1ccc(NC(=O)C(OC(=O)c2cc(C)oc2C)c2ccccc2)cc1 (stereo unspecified)	-15	-3.2	5	3	-9	15	2826
O=C(Cn1c(NCCO)nc2ccccc21)c1ccco1	-14	2.9	2	-1	-8	3	8021

# Next compounds.
Compound	PrP UTR inh	Sa RN4220 lethal	Mtb hypoxia rep	Mtb hypoxia rep growth	BJeLR lethal	ugtP null kill	Autofluor counter
Cc1ccccc1NC(=O)N1CCC(C(=O)c2ccc(F)cc2)CC1	-33	·	·	·	1	·	3693
CCN(CC)S(=O)(=O)c1cccc(NC(=O)COC(=O)c2cc(C)oc2C)c1	-14	3.3	6	7	1	13	3414
CCS(=O)(=O)C1=NN2C(=N)/C(=C\c3ccc(OC(=O)c4ccco4)cc3)C(=O)N=C2S1	-3	14	19	17	1	10	4251
O=C1CCCC2=C1C(c1ccccc1O)C1=C(CCCC1=O)O2	-15	0.7	1	5	6	-1	2382
COC(=O)C1=C(C)N(C2CCCC2)C(=O)C1(NC(C)=O)C(F)(F)F (stereo unspecified)	-21	-2.3	·	·	-7	8	4996
Cc1ccc(S(=O)(=O)N2CCN(Cc3nc4sc(C)c(C)c4c(=O)[nH]3)CC2)cc1	-3	3.4	12	2	-7	5	10291
CCn1ncc([C@@H]2C[C@H]3CN(Cc4cccc(Cl)c4)C(=O)[C@]34CCCN24)c1C	-10	·	·	·	4	·	6735
Cc1ccc(NC(=O)C2CC(=O)Nc3nc4ccccc4n32)c(C)c1 (stereo unspecified)	-14	0.4	-17	-8	-6	-4	4938
COc1ccc(OCc2nnnn2-c2ccccc2)cc1	-11	0.5	4	5	3	-1	10922
CC(C(=O)O)n1ncc2ccccc2c1=O (stereo unspecified)	-20	3.9	12	14	-6	8	3261
COc1ccc(-c2cc(C(=O)NC3CCCC3)c3ccccc3n2)cc1	-21	2.0	2	-4	0	9	3427
CCOC(=O)c1c(C)oc2c1c(CN1CCN(C(=O)OCC)CC1)c(O)c1ccccc12	-99	1.0	8	-14	-1	2	2203

# Remaining list, next part:
Compound	PrP UTR inh	Sa RN4220 lethal	Mtb hypoxia rep	Mtb hypoxia rep growth	BJeLR lethal	ugtP null kill	Autofluor counter
Cc1ccccc1NC(=O)C(=O)NCCc1c[nH]c2ccccc12	24	-4.1	3	2	6	-1	6688
COc1ccc2c3c1OC1[C@H](O)CCC4[C@@H](C2)N(C)CC[C@]314 (stereo partly specified)	-17	1.7	·	·	·	9	6749
Oc1ccc(-c2csc(Nc3ncccn3)n2)cc1O	-89	19	7	8	5	-7	4922
COc1ccc(N2CCN(C(C)=C3C(=O)c4ccccc4C3=O)CC2)cc1	-25	2.5	4	3	2	-4	2550
CC(=NS(=O)(=O)c1ccc(C)cc1)N(C)C	·	3.8	14	-4	·	3	·
COc1ccccc1-c1cc(C(=O)N2CCN(c3ccccc3)CC2)no1	-10	2.5	-7	0	-4	4	3531
